KCNQ2 block = KCNQ2 potassium channel inhibitors, primary screen, cell-based, CHO-K1, FluxOR thallium flux, B-score (AID 2156); 20 min; hits give low values; only compounds with negative scores are shown here; some inactives read as strong as hits; B-score at 10 µM; O88943; hit rate 1.1% among 310,000;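 active = fluorescence ratio B-score at most minus 3 library SDs, with starting brightness B-score within 2 library SDs, cut at about -5.5 in these data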
Target sequence (O88943 whole entry, looked up): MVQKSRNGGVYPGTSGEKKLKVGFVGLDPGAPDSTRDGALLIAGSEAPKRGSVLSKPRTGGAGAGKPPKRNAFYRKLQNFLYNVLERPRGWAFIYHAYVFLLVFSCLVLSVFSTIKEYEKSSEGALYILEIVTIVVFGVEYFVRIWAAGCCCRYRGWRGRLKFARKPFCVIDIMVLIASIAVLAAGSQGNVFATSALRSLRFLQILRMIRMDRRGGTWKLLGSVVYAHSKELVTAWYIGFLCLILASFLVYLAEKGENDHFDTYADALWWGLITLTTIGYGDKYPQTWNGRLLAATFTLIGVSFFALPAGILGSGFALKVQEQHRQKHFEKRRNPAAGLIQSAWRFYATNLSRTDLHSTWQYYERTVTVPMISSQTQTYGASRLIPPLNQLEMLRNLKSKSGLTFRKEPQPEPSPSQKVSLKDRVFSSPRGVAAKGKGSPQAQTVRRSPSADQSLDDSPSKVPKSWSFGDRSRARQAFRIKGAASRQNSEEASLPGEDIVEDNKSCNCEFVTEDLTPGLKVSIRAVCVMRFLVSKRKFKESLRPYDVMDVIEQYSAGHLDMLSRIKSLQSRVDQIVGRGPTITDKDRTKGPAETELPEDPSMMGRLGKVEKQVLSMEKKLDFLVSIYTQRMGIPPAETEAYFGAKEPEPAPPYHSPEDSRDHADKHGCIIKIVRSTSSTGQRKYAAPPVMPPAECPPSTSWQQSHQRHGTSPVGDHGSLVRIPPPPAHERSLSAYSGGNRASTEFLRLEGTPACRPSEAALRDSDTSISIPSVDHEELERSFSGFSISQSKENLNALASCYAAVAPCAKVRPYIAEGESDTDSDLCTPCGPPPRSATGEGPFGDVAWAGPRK
KCNQ2 block baseline = recorded beside KCNQ2 block, whose call it bears; B-score; measured here: initial fluorescence intensity artifact check;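 brightness before thallium and not channel activity; 0 = typical well and far values either way flag optical interference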
Starred values were filed as active, the others as inactive; i = inactive. An excerpt (hit frequency here may not be typical).

canonical_smiles	KCNQ2 block	KCNQ2 block baseline
O=C1CCc2cc(S(=O)(=O)NCc3ccc(F)cc3)cc3c2N1CC3	i	0.5
O=C(CC1Oc2ccccc2NC1=O)NCCCN1CCOCC1 (stereo not drawn)	i	3.5
O=C1C=CC(=O)N1CCNc1ncc(C(F)(F)F)cc1Cl	i	1.1
CCSc1ncc(/C=N/Nc2ccc(Cl)cc2)n1C	i	1.3
NNCCc1ccccc1	i	0.1
COc1ccc(C2=NN(C(=O)COc3ncnc4ccccc34)C(c3ccco3)C2)cc1 (stereo not drawn)	i	-0.16
COc1cc2c(cc1NC(=O)C(C)OC(=O)C1CC(=O)N(Cc3ccco3)C1)oc1ccccc12 (stereo not drawn)	i	0.16
CC1CCc2c(sc3ncn4c(SCC(=O)NCc5ccco5)nnc4c23)C1 (stereo not drawn)	i	0.01
COc1ccc(CCNC(=O)CCS(=O)(=O)Cc2ccccc2C)cc1OC	i	0.88
CCN(C(=O)CSc1nc2cc(C(=O)OC)ccc2c(=O)n1Cc1ccco1)c1cccc(C)c1	i	3.1
CCOC(=O)N1CCN(C(=O)COC(=O)C2CCN(S(=O)(=O)c3ccc(C)c(C)c3)CC2)CC1	i	0.09
O=C(NCC(c1cccnc1)N1CCN(c2ccccc2)CC1)c1ccco1 (stereo not drawn)	i	1
COC(=O)c1cccc(COC(=O)c2ccc(CS(=O)(=O)c3ccc(C)cc3)cc2)c1	i	-0.13
COc1cc(/C=N/S(=O)(=O)CCc2ccccc2)cc(OC)c1O	i	0.04
O=C(Cc1ccccc1)NCC(=O)N/N=C/c1ccc(C(=O)O)cc1	i	-0.96
Cc1ccc(NC(=O)COc2ccc(Br)cc2CO)cc1	i	-0.4
CC(C)(C)NC(=O)COC(=O)c1ccccc1NC(=O)c1ccco1	i	-1.1
CCCCn1c(N)c(N(CC(C)C)C(=O)CCCn2c(=O)oc3ccccc32)c(=O)[nH]c1=O	i	3.4
Cn1cccc1CC(=O)NNC(=S)Nc1ccc(Cl)cc1Cl	i	-0.6
CC(C)OC(=O)CSc1nnc(CNc2ccc(Cl)cc2)n1Cc1ccccc1	i	-0.1
Cc1cc(NC(=O)c2ccc(S(=O)(=O)Nc3ccccc3)cc2)no1	i	-0.09
CN(C)CCCN(Cc1cc2cc3c(cc2[nH]c1=O)OCO3)C(=S)Nc1ccccc1	i	0.09
CN(CC(=O)Nc1ccccc1Br)C(=O)c1cc2c(s1)CCCCC2	i	0.31
CCOC(=O)C1(CC2CCCCO2)CCN(C(=O)Nc2ccc3c(c2)OCO3)CC1 (stereo not drawn)	i	0.26
NC(=O)C1CCN(C(=O)c2ccc(OCC(=O)Nc3cccc(C(F)(F)F)c3)cc2)CC1	i	1.5
CC(=O)N1CCN(CC(c2ccccc2)c2ccccc2)CC1	i	0.59
CCCCn1c(N)c(N(CC)C(=O)c2ccc3c(c2)S(=O)(=O)c2ccccc2C3=O)c(=O)[nH]c1=O	i	0.12
COc1cccc(Cn2cc(N)cn2)c1	i	2.6
O=C(O)C(Cc1cc2ccccc2[nH]1)N1C(=O)C2CC=C(Cl)CC2C1=O (stereo not drawn)	i	0.2
O=C(N/N=C/c1cc([N+](=O)[O-])ccc1O)C(O)(c1ccccc1)c1ccccc1	i	0.78

Another view of two compounds above:
Fields – KCNQ2 block | KCNQ2 block baseline
CC(C)OC(=O)CSc1nnc(CNc2ccc(Cl)cc2)n1Cc1ccccc1
 : i | -0.1
Cc1cc(NC(=O)c2ccc(S(=O)(=O)Nc3ccccc3)cc2)no1
 : i | -0.09

Two entries from above in a different format:
Every second line gives: KCNQ2 block, KCNQ2 block baseline
CCSc1ncc(/C=N/Nc2ccc(Cl)cc2)n1C
 : i, 1.3
NNCCc1ccccc1
 : i, 0.1

Next section.
canonical_smiles	KCNQ2 block	KCNQ2 block baseline
c1ccc(C2c3[nH]c4ccccc4c3CCN2Cc2cccn2-c2ccccn2)nc1 (stereo not drawn)	i	0.04
Cc1c(NC(=O)Nc2ccc(C#N)cc2)c(=O)n(-c2ccccc2)n1C	i	3.2
COc1ccc(N(CC(=O)N2CCN(Cc3ccccc3)CC2)S(C)(=O)=O)c(OC)c1	i	1.3
CSCC[C@H](NC(=O)c1cc([N+](=O)[O-])ccc1Cl)c1nc2ccccc2[nH]1	i	-0.24
CCCC(C)NC(=S)Nc1cc(C)cc(C)c1 (stereo not drawn)	i	2
O=C(c1ccc(Cn2c(=S)[nH]c3ccc(N4CCOCC4)cc3c2=O)cc1)N1CCN(c2ccc(F)cc2)CC1	i	-0.01
CC1CC[C@@]2(OC1)O[C@H]1CC3[C@@H]4C[C@@H](O)[C@@]5(O)C[C@@H](O)[C@H](O)C[C@]5(C)[C@H]4CC[C@]3(C)[C@H]1[C@@H]2C (stereo partly drawn)	i	0.74
CCOc1ccc(S(=O)(=O)N(CC)CC)cc1N	i	0.44
CCCCn1c(SCC(=O)Nc2cc(C(F)(F)F)ccc2Cl)nnc1C(CC)N(C)C (stereo not drawn)	i	-0.5
O=C(N/N=C/c1ccc(-c2ccccc2Cl)o1)c1ccccc1	i	-0.27
Cc1cccc(-c2nc(CSCC(=O)NCCCN3CCOCC3)c(C)o2)c1	i	-0.37
O=C(COC(=O)C1(c2ccccc2F)CCCC1)NCc1ccc2c(c1)OCO2	-7.1*	0.68*
COc1ccc2c(c1OC)C(=O)N1C2SC[C@H]1C(=O)NC1CCCCC1 (stereo partly drawn)	i	0.13
O=S(=O)(c1ccc(Br)cc1)N1CCCN(Cc2cccc(F)c2)CC1	i	2.4
Cc1cc(C)c(S(=O)(=O)N2CCOC2CNC(=O)C(=O)NCCc2ccc(S(N)(=O)=O)cc2)c(C)c1 (stereo not drawn)	i	-0.7
CCOC(=O)c1ccccc1NC(=O)CSc1nnc(Cc2cccn2C)n1-c1ccc(F)cc1	i	-0.23
CC(NC(=O)C(c1ccccc1)c1ccccc1)C(=O)N1CCCCC1 (stereo not drawn)	i	0.11
CCOC(=O)c1c2c(c(=S)n(-c3ccccc3)c1N)CCC2	i	0.01
CC(C)N1C(=O)CSC1c1ccc(Br)cc1 (stereo not drawn)	i	-0.37
Fc1ccc(-n2nnc(-c3nccs3)n2)cc1	i	1.1
COC(=O)c1ccc(Nc2cc(C)nc3ccccc23)cc1	i	-0.37
O=c1oc2c(CN3CCOCC3)c(O)c(Cl)cc2c2c1CCCC2	i	-1.8
NC(=O)c1cc(-c2ccccc2)nc(N2CCOCC2)n1	i	-0.25
CC1=C(C(=O)OCc2ccccc2)C(c2ccc(C(F)(F)F)cc2)NC(=O)N1CCCCCC(=O)O (stereo not drawn)	i	-2.3
CCOC(=O)C1=C(C)Nc2nc(SCC)[nH]c(=O)c2C1c1ccncc1 (stereo not drawn)	i	0.03
CCOC(=O)C1=C2c3ccc4ccccc4c3CC(C)(C)N2C(=O)C1=O	i	0.97
Cc1ccc(Sc2cc(C(F)(F)F)nc(N(C)C)n2)cc1	i	-0.27
Cc1cccc(-c2cc(C(=O)Nc3ccc4c(c3)OCCO4)c3ccccc3n2)c1	i	0.99
O=C(CSC(=S)N1CCCC1)c1ccccc1	i	0.73
COc1ccc2c3c([nH]c2c1)C1CC2C(CC(O)C(OC)C2C(=O)O)CN1CC3 (stereo not drawn)	i	1.5

As entered above:
KCNQ2 block baseline, O=C(COC(=O)C1(c2ccccc2F)CCCC1)NCc1ccc2c(c1)OCO2 : 0.68*
KCNQ2 block baseline, CC(C)N1C(=O)CSC1c1ccc(Br)cc1 (stereo not drawn) : -0.37

Next part:
compound	KCNQ2 block	KCNQ2 block baseline
NC(=O)c1cc(S(=O)(=O)N2CCN(c3cccc(Cl)c3)CC2)cs1	i	-0.14
CC(OC(=O)C1CCN(S(=O)(=O)c2ccc(Cl)cc2)CC1)C(=O)N1CCc2ccccc21 (stereo not drawn)	i	-0.7
N#Cc1ccc(S(=O)(=O)N2CCC(N3CCCCC3)CC2)cc1	i	0.66
Cc1ccc(S(=O)(=O)Nc2c(NC3CCCCC3)c3ccccc3oc2=O)c(C)c1	i	0.18
O=C(N/N=C/c1cc(Br)c(O)c(Br)c1O)c1ccc2c(c1)OCCO2	i	-0.02
O=C(CCn1c(=O)c2cccn2c2ccc(F)cc21)NCCc1ccccc1	i	2.5
COCCCn1c(C)nc2c(c1=O)c1nc3ccccc3nc1n2CCc1ccccc1	i	1.6
Cn1cncc1C(=O)c1ccccc1	i	1
C/C(=N\Nc1nc2c(s1)CCCC2)c1ccc(Cl)cc1	i	-0.01
CCN(CC)CCNC(=O)c1ccc(NC(=O)c2cn(-c3ccc(F)cc3)nc2-c2cccc(OC)c2)cc1	i	-3.9
Cc1c(-c2ccc(F)cc2)nc(N)c(C#N)c1-c1cccnc1	i	0.01
COc1ccc2nc(C)cc(NCc3cccc(C(F)(F)F)c3)c2c1	i	1.5
CCOC(=O)C1=C(N)OC2=C(C(=O)CC(C)(C)C2)C1c1cccs1 (stereo not drawn)	i	1.3
CCC(=O)Nc1ccc(NC(=O)c2ccccn2)cn1	i	0.84
CCOc1ccc(S(=O)(=O)Nc2ccc(C(=O)NCC3CCCO3)cc2)cc1 (stereo not drawn)	i	2.2
CCCC(=O)Nc1ccc(N2CCOCC2)cc1	i	-1.1
COc1ccc(CCNC(=O)Cn2cnc3sc(C)c(-c4ccc(F)cc4)c3c2=O)cc1OC	i	-1.8
COC(=O)c1ccc(CN2CCCC(C(=O)Nc3ccc(-c4ccn[nH]4)cc3)C2)cc1 (stereo not drawn)	i	-0.83
CSc1ccccc1-c1nnc(NC(=O)Cc2ccccc2)o1	i	0.84
Cc1n[nH]c(=O)nc1Nc1ccc(O)cc1	i	1.3

Shown with values ahead of the structure: part of the list above.
KCNQ2 block	KCNQ2 block baseline	Compound
i	0.01	Cc1c(-c2ccc(F)cc2)nc(N)c(C#N)c1-c1cccnc1
i	1.3	CCOC(=O)C1=C(N)OC2=C(C(=O)CC(C)(C)C2)C1c1cccs1 (stereo not drawn)
i	-1.1	CCCC(=O)Nc1ccc(N2CCOCC2)cc1
i	-1.8	COc1ccc(CCNC(=O)Cn2cnc3sc(C)c(-c4ccc(F)cc4)c3c2=O)cc1OC
i	0.84	CSc1ccccc1-c1nnc(NC(=O)Cc2ccccc2)o1

(cont.)
compound	KCNQ2 block	KCNQ2 block baseline
Cc1cc(OCC(=O)Nc2ccccc2N2CCCC2)ccc1C(C)C	i	-0.83
Cc1ccc(NCCC(=O)c2ccc(Cl)cc2)cc1C	i	0.53
Oc1oc(-c2ccccc2)nc1C=Nc1ccccc1	i	-1.7
O=C1CCC([N+](=O)[O-])C(c2ccc(-c3ccccc3)cc2)N1 (stereo not drawn)	i	0.02
N#Cc1nc(Cc2cccc3ccccc23)oc1NCC1CCCO1 (stereo not drawn)	i	-0.19
Cc1c(S(=O)(=O)NC2CCCCC2)c(=O)n(C)c(=O)n1C	i	-0.43
S=c1[nH]nc(-c2c[nH]c3ccccc23)o1	i	0.47
CC1OC(OC2C(OC3C(O[C@H]4CC[C@]5(C)C6C=C[C@]78OC[C@@]9(CC[C@@H](C)[C@H](C)C97)[C@H](O)C[C@@]8(C)[C@]6(C)CC[C@H]5C4(C)C)OC(C)C(O)C3O)OC(CO)C(O)C2O)C(O)C(O)C1O (stereo partly drawn)	i	43
Cc1nc(C(=O)N(C)C)nn1-c1cc(Cl)ccc1Cl	i	0.02
COc1ccc(OC)c(C2NC(=O)CCC2[N+](=O)[O-])c1 (stereo not drawn)	i	1.3
Cn1c(SCC(=O)NC2CCCCC2)nnc1-c1cccnc1	i	1.9
C=CCc1c(NCCO)nc(C)[nH]c1=O	i	1.5
O=C(NCCN1CCOCC1)c1ccc(Cl)cc1O	i	0.47
COCCCNC(=O)C12CCC(C)(C(=O)C1)C2(C)C (stereo not drawn)	i	-1.3
COc1ccccc1N1CCN(CC(=O)Nc2cccc(F)c2)CC1	i	-0.75
COc1ccccc1Nc1nc(N)nc(CN2CCCCC2)n1	i	3.1
CN1CCN(c2ccc([N+](=O)[O-])cc2/C=N/NC(=O)c2cccc([N+](=O)[O-])c2)CC1	i	-0.02
N#CCC(=O)N1CCN(C(c2ccccc2)c2ccccc2)CC1	i	-0.24
COc1ccc(CCNC(=O)COc2ccc(-c3ccc(C#N)cc3)cc2)cc1	i	-0.61
O=C(O)c1cc(Cl)c(Cl)cc1C(=O)N1CCOCC1	i	0.6
COc1ccc(C(C(=O)NCc2ccccc2)N(C(=O)c2snc(C(N)=O)c2N)c2ccccc2OC)cc1 (stereo not drawn)	i	1.8
O=C(CSc1ccc(-c2cccc([N+](=O)[O-])c2)nn1)NC1CCCC1	i	-2.2
Cc1ccc(CNC(=O)CCS(=O)(=O)c2cccc3nsnc23)cc1	i	0.33
C=C(C)Cn1c(C)cc(C)c(S(=O)(=O)c2ccccc2C)c1=O	i	-0.69
Cc1ccsc1/C=N/NC(=O)c1ccc(Cn2cc(Br)cn2)o1	i	-0.26
CC(=O)NCC(=O)NC1CCCc2c1cnn2-c1ccccc1F (stereo not drawn)	i	0.57
CCCCNC(=O)C1CCN(c2nc(OC)nc(OC)n2)CC1	i	0.18
Cc1ccc(C(=O)NCC(=O)NCCSc2ccc(Br)cc2)cc1	i	0.22
COc1ccccc1C/C(N)=N/OC(=O)COc1cccc(C)c1C	i	-0.91
CCOC(=O)C(=NC1CCS(=O)(=O)C1)NNc1ccccc1Cl (stereo not drawn)	i	1
COc1ccc(OCc2nc3ccccc3[nH]2)cc1	i	-0.63
CC(C)(C)OC(=O)NCCCCC1=CC2=CC(=O)C(C)(OC(=O)c3ccco3)C(=O)C2=CO1 (stereo not drawn)	i	0.21
COc1cc(NC(=O)c2ccc(=O)[nH]n2)cc(OC)c1OC	i	0.05
